Assay outcomes: PubChem, several laboratories
HNF4A DNA FP: change in binding of human HNF4A to DNA, primary screen, biochemical, fluorescence polarization, FITC-DNA; 1 h; activity change, % at 10 µM; 0.3% of 360,000 active; AID 1224865, 2016; in the data active = activity change above about 30%, passing the limit was not always enough;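 note: controls were the assay level and a saturating level of protein; the project sought stronger binding though the title names inhibitors; some compounds called inactive have numbers as strong as hits; positive values seem to mean higher polarization but the record does not say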
ALR H2O2 inh: inhibitors of human ALR sulfhydryl oxidase, primary screen, biochemical, H2O2 detection, HRP-luminol luminescence, single point; FAD-linked sulfhydryl oxidase ALR (Homo sapiens), P55789; purified ALR, DTT oxidation; inhibition, % (concentration not given with the values); 3.8% of 290,000 active;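 active = mean and each replicate at 75% or more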;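 note: stock transfer was 7.5 nL into about 7.5 µL; 0% = neutral wells and 100% = wells with inactivated enzyme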
Beta2AR agonist: beta2AR agonists driving receptor internalization, primary screen, cell-based, FAP fluorogen, flow cytometry; Beta-2 adrenergic receptor (Homo sapiens), P07550; Am2.2-beta2AR cells; reference of the scale not given here; AID 504454, 2011; response, % (test concentration not listed); 0.43% of 340,000 active;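 active = response above a set limit, near 3 SD of response in nonfluorescent compounds, cut at about 42% in these data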;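 note: stock transfer was 100 nL into about 11 µL; a reference agonist was the positive control; negative values mostly stem from fluorescent compounds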
LANA-H2A inh: blockers of LANA interaction with H2A/H2B – biochemical, FP readout, HTS, primary screen | Protein LANA1 (Human herpesvirus 8 type P (isolate GK18)), Q9QR71 | cell-free LANA-H2A/H2B peptide, fluorescence polarization | inhibition, % (no concentration beside the values) | 0.6% of 320,000 active; in the data active = inhibition mostly above about 10%, no sharp cut-off; inactive = mostly below about 6.7%;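 note: stock transfer was 7.5 nL into about 10 µL; 0% = median of vehicle wells and 100% = median of positive control wells; one replicate is shown; the record names a cut of 25% in any replicate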
Target sequence (Q9QR71 whole entry, looked up): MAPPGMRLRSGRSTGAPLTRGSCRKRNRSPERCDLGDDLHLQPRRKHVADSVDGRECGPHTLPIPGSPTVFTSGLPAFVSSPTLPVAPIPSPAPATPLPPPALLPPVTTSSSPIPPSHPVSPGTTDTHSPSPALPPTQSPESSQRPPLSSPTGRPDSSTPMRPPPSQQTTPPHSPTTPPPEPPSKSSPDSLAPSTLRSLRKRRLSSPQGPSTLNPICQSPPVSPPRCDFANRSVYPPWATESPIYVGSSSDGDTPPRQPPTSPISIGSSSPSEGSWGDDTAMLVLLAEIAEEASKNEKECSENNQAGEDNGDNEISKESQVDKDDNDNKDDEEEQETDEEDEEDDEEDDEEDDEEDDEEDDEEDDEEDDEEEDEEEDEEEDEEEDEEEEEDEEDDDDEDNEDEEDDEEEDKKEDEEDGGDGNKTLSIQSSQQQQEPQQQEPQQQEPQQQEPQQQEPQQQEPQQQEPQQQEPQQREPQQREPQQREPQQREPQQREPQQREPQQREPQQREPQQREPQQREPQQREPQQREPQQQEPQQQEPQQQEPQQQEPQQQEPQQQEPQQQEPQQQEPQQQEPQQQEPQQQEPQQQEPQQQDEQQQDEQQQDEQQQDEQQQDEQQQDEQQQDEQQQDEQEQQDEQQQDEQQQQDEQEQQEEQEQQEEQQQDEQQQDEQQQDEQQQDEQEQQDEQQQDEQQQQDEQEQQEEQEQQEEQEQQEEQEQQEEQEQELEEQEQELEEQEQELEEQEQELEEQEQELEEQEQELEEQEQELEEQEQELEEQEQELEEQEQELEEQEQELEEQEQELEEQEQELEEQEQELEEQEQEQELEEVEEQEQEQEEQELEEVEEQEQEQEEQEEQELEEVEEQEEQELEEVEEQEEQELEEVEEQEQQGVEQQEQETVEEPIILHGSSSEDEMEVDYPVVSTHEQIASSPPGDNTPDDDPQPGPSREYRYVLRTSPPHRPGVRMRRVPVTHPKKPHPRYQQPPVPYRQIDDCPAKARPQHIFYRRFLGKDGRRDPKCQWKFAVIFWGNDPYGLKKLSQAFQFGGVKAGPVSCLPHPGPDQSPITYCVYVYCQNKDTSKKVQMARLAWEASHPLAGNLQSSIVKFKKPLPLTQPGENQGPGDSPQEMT
UCH37 DUB inh: inhibitors of human UCH37 deubiquitinase, primary screen, biochemical, Ub-AMC cleavage, fluorescence. Ubiquitin carboxyl-terminal hydrolase isozyme L5 (Homo sapiens), Q9Y5K5. purified proteasome/UCH37. inhibition, % (test concentration not listed). 0.33% of 330,000 active;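 active = mean of two replicates above 20%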;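 note: 0% = compound-free wells with enzyme and 100% = wells lacking proteasome; stock transfer was 100 nL into about 20 µL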
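Schedule: 30 min plus 25 min, room temperature / Material: human UCH37 within purified proteasomes / Technique: AMC fluorescence intensity at 355/460 nm / Buffer or medium: pH 7.4 Tris-HCl (50 mM) with ovalbumin, ATP-MgCl2, DTT / Controls: wells without proteasome as full block, compound-free enzyme plus substrate as uninhibited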
E coli growth: E. coli growth inhibition, primary screen, OD600. Escherichia coli growth, 23 h; hits give low values. OD600 absorbance (concentration not given with the values). 0.21% of 330,000 active;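 active = OD600 absorbance below the run mean of sample wells minus 3.6 SD, in any replicate, cut at about 0.56 in these data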;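 note: stock transfer was 300 nL into about 60 µL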
FGF22 binding: binders of human FGF22 protein, primary screen, FGF22 synaptogenesis inhibitor project, biophysical, thermal shift, single point. recombinant FGF22 thermal shift, SYPRO orange fluorescence; percent of sucrose octasulfate shift, DMSO zero. 1.5% of 340,000 active. Fibroblast growth factor 22 (Homo sapiens), Q9HCT0. calls only at 9.99 µM. AID 651658, 2012;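 active = melting point raised past a set limit in the mean and every replicate; three in four hits are not shown here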
Starred values were filed as active, the others as inactive; i = inactive; x = not tested or not shown; & = joins results of further samples. An excerpt. The share of hits here may be higher or lower than overall.

cpd	molecule	HNF4A DNA FP	LANA-H2A inh	FGF22 binding	E coli growth	UCH37 DUB inh	ALR H2O2 inh	Beta2AR agonist
1	O=C(N[C@H]1CCC(=O)N([C@H](CSc2ccc(Br)cc2)Cc2ccccc2)CC1)OCc1ccccc1	-2.9	0.4	i	x	1.9	-5	-9
2	O=C(c1cn(-c2ccccc2)nc1-c1ccc(F)cc1)N1CCOCC1	-2.7	-0.8	x	0.73	1.4	x	-7
3	Cc1ccc(O)c(C(=O)c2cnc3c(c2)c(C)nn3-c2ccccc2)c1	1.4	0.8	x	0.73	4.6	x	-5
4	O=C(Nc1ccccc1NS(=O)(=O)c1ccc(F)cc1)C1CCCC1	2.0	3.0	i	0.68	-1.5	3	1
5	Nc1nncn1C(=O)CCc1ccccc1	-0.8	2.0	x	0.68	4.8	x	0
6	CC12CC3(C)CC(C)(C1)CC(C(=O)NC(=S)N1CCCC1)(C2)C3	1.2	-1.8	i	0.72	5.4	-5	1
7	COc1ccc2c(c1)SCC(=O)N2C	0.8	7.3	x	0.72	2.8	-8	-4
8	COC(=O)[C@@]1(C)[C@H]2C(=O)N(Cc3ccccc3)C(=O)[C@H]2[C@H]2CN=C(SCc3ccc(Cl)cc3)N21	-2.0	x	i	0.68	-0.9	x	-4
9	Cc1ccccc1NS(=O)(=O)c1ccc(C(=O)N2CCN(c3ccccc3O)CC2)cc1	1.7	-3.6	i	0.71	-1.9	0	24
10	CCOc1cc(/C=N/NC(=O)c2cccc(S(=O)(=O)N3CCOCC3)c2)ccc1OCC(=O)N(C)C	-1.5	0.0	i	x	x	x	-7
11	[N-]=[N+]=NCC/C=C\C1NS(=O)(=O)OCC1O (stereo unspecified)	-0.8	1.3	i	x	0.8	1	-5
12	COc1ccccc1N(CC(=O)NCCN1CCOCC1)S(=O)(=O)c1ccc(C)cc1	4.6	-4.0	x	0.65	-0.9	-21	0
13	[O-][n+]1c2ccc3nonc3c2nn1-c1ccccc1Cl	2.9	1.0	i	0.64	-7.8	0	-8
14	CCN(CC)S(=O)(=O)c1ccc(C(=O)OCC(=O)c2ccc3c(c2)NC(=O)CO3)cc1	4.5	-2.4	i	0.72	0.2	2	1
15	Cn1c(=O)c2c(nc(SCc3cccnc3)n2Cc2ccccc2)n(C)c1=O	0.8	3.3	x	0.67	1.1	x	-20
16	O=C(CCCN1C(=O)/C(=C/c2cccs2)SC1=S)NNC(=O)c1ccccc1O	8.5	1.9	x	0.68	1.7	x	-7
17	COc1cccc(CN2CC(C(=O)N(C)CCc3ccccc3)CCC2=O)c1 (stereo unspecified)	0.6	-2.2	i	0.7	-1.4	-3	-5
18	O=C(NCN1C(=O)C2C3C=CC(C3)C2C1=O)Nc1ccccn1 (stereo unspecified)	-2.3	4.4	x	0.7	4.4	x	-4
19	COC(=O)Cn1nc(-c2ccccc2)c2ccccc2c1=O	-0.3	-4.4	x	0.71	-1.9	-10	0
20	CCOC(=O)/C(=N\Nc1ccccc1[N+](=O)[O-])c1csc(Nc2ccccc2)n1	-1.1	0.1	i	x	x	-68	4

Arranged by the number under UCH37 DUB inh (lowest first): some entries from above
No.	smiles	HNF4A DNA FP	LANA-H2A inh	UCH37 DUB inh	ALR H2O2 inh	Beta2AR agonist
11	[N-]=[N+]=NCC/C=C\C1NS(=O)(=O)OCC1O (stereo unspecified)	-0.8	1.3	0.8	1	-5
15	Cn1c(=O)c2c(nc(SCc3cccnc3)n2Cc2ccccc2)n(C)c1=O	0.8	3.3	1.1	x	-20
5	Nc1nncn1C(=O)CCc1ccccc1	-0.8	2.0	4.8	x	0
6	CC12CC3(C)CC(C)(C1)CC(C(=O)NC(=S)N1CCCC1)(C2)C3	1.2	-1.8	5.4	-5	1

Compound profiles, from the list above. Screens in order: HNF4A DNA FP	LANA-H2A inh	FGF22 binding	E coli growth	UCH37 DUB inh	ALR H2O2 inh	Beta2AR agonist
Results for Cn1c(=O)c2c(nc(SCc3cccnc3)n2Cc2ccccc2)n(C)c1=O : 0.8	3.3	x	0.67	1.1	x	-20
Results for O=C(N[C@H]1CCC(=O)N([C@H](CSc2ccc(Br)cc2)Cc2ccccc2)CC1)OCc1ccccc1 : -2.9	0.4	i	x	1.9	-5	-9
Results for COC(=O)Cn1nc(-c2ccccc2)c2ccccc2c1=O : -0.3	-4.4	x	0.71	-1.9	-10	0

Continued.
cpd	molecule	HNF4A DNA FP	LANA-H2A inh	FGF22 binding	E coli growth	UCH37 DUB inh	ALR H2O2 inh	Beta2AR agonist
21	Cc1cc(NC(=O)CN2CCCCC2)n(-c2ccccc2)n1	-2.6	-5.7	i	0.63	5.8	-13	4
22	Cc1ccc(S(=O)(=O)NC(C)C(=O)NCc2ccc(Cl)cc2)cc1 (stereo unspecified)	-1.1	4.9	i	0.63	-1.2	11	13
23	CCOc1ccc(NC(=O)CN(C)C(=O)c2cc3c(s2)CCC(C)C3)cc1OCC (stereo unspecified)	0.6	0.3	i	0.7	0.7	-38	2
24	CN(C)CC(O)COc1cc2ccccc2cc1C(=O)N1CCCCC1 (stereo unspecified)	3.3	-0.4	x	0.72	0.9	-25	6
25	CC1CCCCC1NC(=O)COc1ccc(-n2cnnn2)cc1 (stereo unspecified)	-0.4	0.9	x	0.72	2.9	33	3
26	C[C@]12c3[nH]c4ccccc4c3CCN1C(=O)C(CC(=O)NCCc1ccccn1)C[C@@H]2C(=O)N1CCOCC1 (stereo partly specified)	3.4	-134	i	0.71	-1.2	-1	7
27	CC(C)OC(=O)CSc1nc(Cc2ccccc2)nc2ccccc12	6.2	1.7	x	0.68	1.8	86*	-1
28	COc1cccc(CNC(=O)N2CCN(S(=O)(=O)c3ccc(Cl)cc3)CC2)c1	6.4	5.7	i	0.71	0.4	-2	-5
29	COc1ccc(CNC(=O)CS(=O)Cc2nc(-c3ccc(OC)c(OC)c3)oc2C)cc1 (stereo unspecified)	2.0	-9.6	i	0.67	-0.5	99*	1
30	O=C(Oc1ccc(Cl)c2cccnc12)C12CC3CC(CC(C3)C1)C2	-2.5	-1.2	x	0.74	6.9	-4	0
31	O=C(CCNC(=O)c1ccc(Br)o1)NC1CCCC1	-0.2	2.5	x	0.72	4.8	-4	-1
32	O=C(Cn1cnc2c(nnn2Cc2ccccc2)c1=O)Nc1ccc2c(c1)OCCO2	-2.7	1.4	i	0.72	1.8	-7	-3
33	CCOC(=O)c1sc(NS(=O)(=O)c2ccc(NC(C)=O)cc2)nc1C	-1.1	0.1	x	0.7	4.9	-5	6
34	COc1ccc(CCNC(=O)Cn2cc(C(F)(F)F)cc(Cl)c2=O)cc1	2.6	0.9	i	0.71	0.8	13	-1
35	CC1CC(CCN)(c2ccccc2)C(C)CN1C (stereo unspecified)	5.4	3.8	i	0.66	5.2	-13	6
36	CSc1ccccc1NC(=O)Cn1nc([N+](=O)[O-])cc1C	-0.3	4.3	i	0.71	6.2	-2	7
37	COc1ccccc1/C=C/C1NC(=O)NC(C)=C1C(=O)OC(C)C (stereo unspecified)	-1.2	-0.3	i	0.7	2.7	0	-3
38	O=C(COc1ccccc1[N+](=O)[O-])NCCCN1CCCC1=O	2.5	-0.5	i	0.68	2.1	-2	-11
39	CCNC(=O)CCn1nc(-c2ccc(C)cc2)c2ccccc2c1=O	-1.6	-0.9	i	0.7	1.4	7	-2
40	Cc1ccc(CNC(=O)CS(=O)Cc2nc(-c3ccccc3Cl)oc2C)cc1 (stereo unspecified)	0.3	1.0	i	0.69	3.7	95*	-2
41	CCCn1c(N)c(N(CCOC)C(=O)c2cc(S(=O)(=O)N3CCCCCC3)ccc2OC)c(=O)[nH]c1=O	0.6	-0.5	i	x	x	-3	2
42	O=C1C(c2ccncc2)=C(O)c2ccccc21	2.3	-5.7	x	0.69	16	6	11
43	O=C(Nc1cccc(S(=O)(=O)NC2=NCCC2)c1)c1ccccc1OC(F)F	-4.4	x	i	0.71	-1.3	x	0
44	Cc1ncc(CSc2nnnn2-c2ccccc2)c(N)n1	-0.4	5.7	i	0.64	3.3	0	-3
45	Cc1ccc(S(=O)(=O)NC(=O)NCc2ccco2)cc1	-1.8	x	i	0.66	0.9	x	-10
46	CCc1ccc(C(=O)COC(=O)C2=NN(c3ccccc3)C(=O)CC2)cc1	-0.3	-0.7	i	0.7	4.3	-1	3
47	C=C1CC(COc2ccc3c(C)c(Cl)c(=O)oc3c2)(c2ccccc2)OC1=O (stereo unspecified)	-3.1	x	i	x	x	x	28
48	Cn1c(O)c(C(C#N)=C2N=c3ccccc3=N2)c2ccccc21	6.4	1.4	x	0.73	1.6	x	0
49	CNS(=O)(=O)c1cccc(C(=O)OCC(=O)Nc2ccc(OC)cc2[N+](=O)[O-])c1	1.7	5.8	i	0.65	3.2	-49	-1
50	O=[N+]([O-])c1cc(Cl)c2cccnc2c1O	0.9	-3.8	x	0.067*	16	-3	2
51	Cc1ccc(S(=O)(=O)N2CCC(C(=O)NCCc3ccccc3)CC2)cc1	-1.5	-0.2	x	0.67	1.2	-8	5
52	CN1C(=O)Cn2c1nc1ccccc12	-2.6	2.2	x	0.67	2.9	0	3
53	COc1ccc(C(=O)c2ccc([N+](=O)[O-])cc2)cc1S(=O)(=O)N1CCC(C(=O)O)CC1	1.3	-3.9	i	0.68	3.2	-13	7
54	CCN1CCN(Cc2ccc(C(=O)Nc3ccc(C)c(NCc4cnc(NC(=O)OC)cn4)c3)cc2C(F)(F)F)CC1	-1.7&9.6	4.1	i	0.7	3.9	-22	-3
55	NC(=O)CN1CCN(S(=O)(=O)c2ccc(Br)cc2)CC1	2.4	2.1	i	0.72	0.0	-10	-1
56	CN(C)c1cc(N/N=C/c2ccccc2C(F)(F)F)nc(N(C)C)n1	-5.3	1.3	i	x	x	-75	-12
57	CCc1ccc(NS(=O)(=O)c2ccc3[nH]c(=O)[nH]c3c2)cc1	5.0	-1.9	i	0.67	2.7	-8	-5
58	COc1cccc(/C=C2\SC(=S)N(C(Cc3ccccc3)C(=O)O)C2=O)c1 (stereo unspecified)	54*	4.8	x	0.66	8.4	68	-1
59	O=C(CCC(=O)Nc1ccccc1)NNC(=O)C(c1ccccc1)c1ccccc1	-0.2	7.9	x	0.68	4.6	-32	-1
60	CS(=O)(=O)Nc1ccc(C(=O)N2CCCC2)cc1	-8.3	-4.2	x	0.74	3.2	-5	8
61	N#CC1=C(N)n2c(s/c(=C\c3ccco3)c2=O)=C(C#N)C1c1ccco1 (stereo unspecified)	-24	0.7	x	x	x	46	-14
